Screening results (PubChem)
hNpr1 antagonist – human Npr1 receptor antagonism; P16066; HEK293 hNpr1 GloSensor cGMP, ANP-stimulated luminescence; Potency, µM (titrated, usually from 46.3 µM), for the others: at the highest dose activity change, negative = inhibition, usual class: inhibitors; 76,000 tested, 1.6% active; active = well fitted inhibition curve with a large enough effect; inconclusive = small, poorly fitted or top-dose-only effect; inactive = no such curve, though single readings can be large or run the other way;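 also: nearly all actives have a fitted effect of over 60% in size; nearly all hits also lower the signal before the agonist is added; a reference antagonist and vehicle were the controls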
Target sequence (P16066 whole entry, looked up): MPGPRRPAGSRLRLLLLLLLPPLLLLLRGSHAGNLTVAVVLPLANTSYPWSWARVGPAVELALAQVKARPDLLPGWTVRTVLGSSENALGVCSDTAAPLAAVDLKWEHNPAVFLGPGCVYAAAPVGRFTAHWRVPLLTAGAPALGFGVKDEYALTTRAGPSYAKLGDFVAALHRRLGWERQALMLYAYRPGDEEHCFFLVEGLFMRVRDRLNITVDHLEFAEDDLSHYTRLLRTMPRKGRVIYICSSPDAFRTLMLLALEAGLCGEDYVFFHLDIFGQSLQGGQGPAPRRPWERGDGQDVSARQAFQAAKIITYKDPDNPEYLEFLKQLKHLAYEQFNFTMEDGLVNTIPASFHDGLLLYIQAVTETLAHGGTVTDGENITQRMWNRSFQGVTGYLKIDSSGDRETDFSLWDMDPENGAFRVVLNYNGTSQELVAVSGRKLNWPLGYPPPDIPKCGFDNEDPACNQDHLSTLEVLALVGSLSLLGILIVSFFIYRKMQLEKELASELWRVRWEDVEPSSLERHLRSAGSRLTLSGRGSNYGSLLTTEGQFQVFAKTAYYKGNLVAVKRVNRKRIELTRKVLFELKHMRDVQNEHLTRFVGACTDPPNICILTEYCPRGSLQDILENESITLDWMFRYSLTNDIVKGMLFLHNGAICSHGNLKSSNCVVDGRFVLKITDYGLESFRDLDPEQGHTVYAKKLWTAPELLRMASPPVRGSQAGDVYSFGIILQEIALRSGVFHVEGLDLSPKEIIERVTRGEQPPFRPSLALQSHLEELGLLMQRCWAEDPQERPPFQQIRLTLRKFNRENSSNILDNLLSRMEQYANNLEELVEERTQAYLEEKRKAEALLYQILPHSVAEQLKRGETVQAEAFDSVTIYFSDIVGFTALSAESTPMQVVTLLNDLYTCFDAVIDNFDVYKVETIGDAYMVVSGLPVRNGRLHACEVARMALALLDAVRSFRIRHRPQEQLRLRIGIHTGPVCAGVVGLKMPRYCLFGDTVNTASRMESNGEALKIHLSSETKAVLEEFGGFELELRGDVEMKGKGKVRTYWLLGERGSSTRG
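Compound pre-incubated 30 min at room temperature on GloSensor-loaded HEK293 cells stably carrying hNpr1 and the pGS-40F cGMP biosensor. Stimulation uses hNppA at 0.1 nM final; luminescence is taken at baseline and 20 min post-agonist.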
Active calls of the source: *; ? = inconclusive; [ ] = remark or other dose. % is scaled to controls: 0 for no effect and ±100 for the full control effect; potency is read from the fitted curve at half-maximal effect. Only part of the results is shown (hit frequency here may not be typical).

SMILES | hNpr1 antagonist
CCNC(=O)NC[C@@H]1C=C(C)[C@H](CC(=O)NCCN(C)C)C[C@H]1C(C)C | 6%[70.6 µM]
Cc1ncsc1CN1CC(N(Cc2ccccc2)C2CCOCC2)C1 | -2%
CN1CCCN(C(=O)C2CCOCC2)c2ccccc21 | 0%
Cc1nc2c(c(-c3ccc(O)cc3)n1)CN(Cc1ccc(N(C)C)cc1)CCC2 | -27%
O=C(N[C@@H]1CN(c2ncccn2)C[C@H]1CO)c1nccc2ccccc12 | 4%
Cc1noc(-c2nc(-c3ccc(Cl)cc3)no2)n1 | -2%
COc1cccc(C(=O)N2CCC[C@H]2c2nc(-c3ccc(F)cc3)no2)c1 | -1%
COCCCNC(=O)N1CCC(Cc2noc(-c3ccncc3)n2)C1 (configuration not stated) | -8%
COc1ccc(CN2Cc3[nH]cnc3C[C@H]2C(=O)N2CCC(Cc3ccccc3)CC2)cc1 | -12%
CCNC(=O)C1CCN(C(=O)c2ccc3nc(-c4ccccc4)cn3c2)C1 (configuration not stated) | -1%
O=C(CC1CCOC2(CCN(C(=O)c3ccccc3)CC2)C1)N1CCCC1 (configuration not stated) | 3%
Cc1onc(-c2cnn(C)c2NCCc2ccccc2)c1C(=O)N1CCC(c2ccccc2)CC1 | -2%
O=C(Cc1c[nH]c2ccccc12)NCC12CCC=C1N(CC1CC1)C(=O)CC2 (configuration not stated) | -15%
Cc1nc(-c2c3n(c(=O)n(CC(=O)c4ccc(Cl)cc4)c2=O)CCCC3)no1 | 4%
O=C1NCCOCCN(S(=O)(=O)c2cccc(F)c2)[C@H]2CCC[C@@H]12 | -1%
Cc1ccc(CN2CCn3c(nn(-c4ccc([N+](=O)[O-])cc4)c3=O)C2)cc1 | ?
O=C(N[C@@H]1CN(Cc2ccc(F)cc2Cl)C[C@H]1CO)C1CC1 | 6%
COc1cc2cc(CN3CCC(N(C)C)C3)c(-c3cccc(Cl)c3)nc2cc1OC (configuration not stated) | -1%
O=C(Cc1ccccc1)NCCC1CCN(C(=O)Nc2cccc(F)c2)CC1 | -4%
Cc1cc(C)cc(OCC(=O)c2ccc3c(c2)N(CC(=O)N2CCOCC2)C(=O)CO3)c1 | -3%
COc1ccc(CN2CCCn3nc(C)c(-c4ccnn4C(C)C)c32)cc1O | 1%[70.6 µM]
Cc1nc(N2CCC(NC(=O)C3CCCCC3)CC2)cc(C(F)(F)F)n1 | -15%
CCCNC(=O)N[C@@H]1CCC[C@@H](C(=O)NCc2cc(F)cc(F)c2)CC(=O)N(C)C1 | 0%[70.6 µM]
Cc1ccc2nc(C3CCCN(Cc4cccc(-c5ccc(F)cc5F)c4)C3)[nH]c(=O)c2c1 (configuration not stated) | -25%
Cc1ncsc1C(=O)N1CCC2(CC1)OC(=O)N(Cc1ccccc1)C2(C)c1cccnc1 (configuration not stated) | 4%
O=C(C1CCCN(c2cnn(Cc3ccccc3)c(=O)c2)C1)N1CCCC1 (configuration not stated) | 7%
Cc1nc(-c2cn(C3CCCN(C(=O)c4cccc(F)c4)C3)nn2)no1 (configuration not stated) | -1%
Cc1nc(CC(=O)N2CCCC3(CCC(=O)N(CCC(C)C)C3)C2)cs1 (configuration not stated) | 6%
C[C@@H](NC(=O)C1CCCC1)c1onc(-c2ccc(Cl)cc2)c1C(=O)O | 0%[70.6 µM]
COc1cccc(-c2ccccc2NC(=O)C2CCN(Cc3ccc(F)cc3)CC2)c1 | -26%

In the list so far, 4 contain sulfur.
SMILES | hNpr1 antagonist
Cc1ncsc1CN1CC(N(Cc2ccccc2)C2CCOCC2)C1 | -2%
O=C1NCCOCCN(S(=O)(=O)c2cccc(F)c2)[C@H]2CCC[C@@H]12 | -1%
Cc1ncsc1C(=O)N1CCC2(CC1)OC(=O)N(Cc1ccccc1)C2(C)c1cccnc1 (configuration not stated) | 4%
Cc1nc(CC(=O)N2CCCC3(CCC(=O)N(CCC(C)C)C3)C2)cs1 (configuration not stated) | 6%

Going on with the list.
SMILES | hNpr1 antagonist
O=C(NCc1ccco1)C1COC2(CCN(C(=O)c3ccco3)CC2)N1C(=O)c1ccc(F)cc1 (configuration not stated) | 1%
NS(=O)(=O)c1ccc(C(=O)N2CCC3(CC2)Nc2ccccc2NC3=O)cc1 | 1%
COC[C@@H]1CN(Cc2cc(F)ccc2F)C[C@H]1C(=O)NC1CC1 | -1%
Cc1noc([C@H]2CCN(Cc3ccc4c(c3)CCO4)C[C@H]2NC(=O)C2CC2)n1 | -7%
COc1ccc(-c2noc(CC3CCN(C(=O)c4cc(F)cc(F)c4)CC3)n2)cc1 | 6.3µM*
COc1ccc(NC(=O)Nc2ccc(C)n(CC(=O)N3CCCCCC3)c2=O)cc1 | -1%
CN1C(=O)[C@@H]2C[C@@H](CN2CC2CC2)Oc2ccccc21 | -15%[70.6 µM]
CSCC(=O)NCCC[C@H](NC(=O)[C@@H]1[C@@H](NC(=O)Nc2ccc(F)cc2F)CCN1C(=O)CSC)C(N)=O | 1%
COCc1ncc(C)n1CCNC(=O)c1cc(-c2ccccc2C)n[nH]1 | 2%
Cn1nccc1C(=O)N1CCN(Cc2ccc(=O)n(CC3CC3)c2)CC1 | 2%
CCO[C@H]1CN(C(=O)c2ccc(-c3noc(C4CC4)n3)cc2)C[C@@H]1O | -3%
Cc1cccc(Cl)c1NC(=O)Cn1ccn2nc(-c3ccccc3)c(CO)c2c1=O | -4%
Cc1ncoc1C(=O)N1CCC2(CCCN(Cc3cccc(F)c3F)C2=O)C1 (configuration not stated) | -3%
Cc1ccc2c(C)c(C(=O)N(C)Cc3noc4c3CCCC4)oc2c1 | -13%
O=C(Cn1ccn2nc(-c3ccc(F)cc3)c(CO)c2c1=O)NCCC1=CCCCC1 | -3%
Cc1noc(C2CC3(CCN(C(=O)c4nn(C)c5ccccc45)CC3)CN2C)n1 (configuration not stated) | -3%
COc1ccccc1CCN1CCCC(CN(C)C(=O)C(=O)c2cccn2C)C1 (configuration not stated) | 1%
Cn1nccc1C(=O)N1CCCCCC1c1nc(-c2ccncc2)no1 (configuration not stated) | -2%
Cc1cnc(C(=O)N2CCCC(c3nc(-c4cccnc4)no3)CCNC(=O)CC2)cn1 (configuration not stated) | 0%
COC(=O)c1cccc(NC(=S)N[C@H]2CO[C@H]3[C@@H]2OC[C@@H]3n2nnnc2-c2cccc(OC)c2)c1 | ?
Cc1cnc(-c2ccncc2)n1CCNC(=O)CCC1CCCC1 | 6%
CCn1nc(C)cc1C(=O)N1CCCC(CCC(=O)NCc2ccc(OC)cc2OC)C1 (configuration not stated) | ?
O=C(c1noc(-c2ccc(F)cc2)n1)N1CCN(c2ccc(Cl)cc2)CC1 | ?
O=C(N[C@H]1[C@H]2CCO[C@H]2[C@@H]1N1CCCC1)c1ccc(-c2cccc(F)c2)cc1 | -1%
CCCCOc1ccc(C(=O)N2CCC[C@H]2c2nc(-c3ccccc3)no2)cc1 | -12%
COc1cccc(-c2ncc(CNC(=O)C3NCCc4[nH]cnc43)s2)c1 (configuration not stated) | -2%
COc1ccccc1CC(=O)N1CCC2(CC1)NC(=O)N(c1cccc(F)c1)N2 | 0%
CCc1ccc(OCC(=O)c2ccc3c(c2)N(CC(=O)NCCCOC)C(=O)CO3)cc1 | -2%
COc1ccc(-c2cc(N3CCCC(NC(=O)Cc4ccsc4)C3)n[nH]2)cc1 (configuration not stated) | -6%
NCCn1cc(C(=O)NC2CCCN(c3cnccn3)C2)nn1 (configuration not stated) | 2%
COCCC(=O)N[C@H]1CC[C@]2(C)CCC([C@H](C)C(=O)NCCc3ccc(OC)c(OC)c3)[C@H](O)[C@H]2[C@@H]1C (some centres not stated) | 1%
Cc1ccc(-c2cn3c(n2)N(C(=O)Cn2ccnc2C)CCC3)cc1 | -10%
CCc1nccn1Cc1nnc(C2CC(N)C2)n1CCOC (configuration not stated) | -9%
O=C1NCCCCCCN(Cc2ccncc2)[C@@H]2CN(S(=O)(=O)c3ccccc3)CC[C@@H]12 | -2%
O=C(CC[C@@H]1CNC(=O)[C@@H]2C[C@H](NS(=O)(=O)c3cccs3)CN12)NC1CC1 | 8%[70.6 µM]
CC(=O)Nc1cccc(C(=O)N2CCC(n3cc(-c4nc(C(C)C)no4)nn3)CC2)c1 | 0%
COc1cccc([S+](=O)([O-])N2CCNc3cnc(Nc4ccc(N5CCOCC5)cc4)nc3C2)c1 | 2%
CCCCCC(=O)N[C@H]1C[C@@H](Cc2cc(COc3ccccc3)on2)C1(C)C | ?
COc1ccc(C(=O)N2CCCCCCNC(=O)[C@@H]3CCC[C@@H]32)cn1 | 1%
CCN(CC)[C@H]1[C@@H]2OC[C@@H](O2)[C@@H](NC(=O)Nc2cccc(OC)c2)[C@@H]1O | 3%[70.6 µM]
COc1cccc(Nc2cc3c(cn2)CN(Cc2cccnc2)CCN3)c1 | -17%[70.6 µM]
Cc1ccc(C)c(NC(=O)CN2C(=O)C(c3ccccc3)=NC23CCCC3)c1 | -5%
Cc1noc(C)c1S(=O)(=O)NCCC1CN(c2cnn(C)c(=O)c2)CCO1 (configuration not stated) | 5%
COc1ccc(-c2cc3c(nc2-c2ccccc2)nc(C(=O)NCCN(C)C)n3C)cc1OC | -2%
Cc1nc(-c2ccccc2)n(Cc2ccc(F)c(F)c2)c(=O)c1CCO | 3%
O=C(Cc1ccc(Cl)cc1)N1CCN(C(=O)c2nnn3c2COC(c2ccccc2)C3)CC1 (configuration not stated) | -26%
O=C(COc1ccccc1)N1CCC(N2CC3CC(C2)[C@H]2CCCC(=O)N2C3)CC1 (some centres not stated) | -2%
COCCNc1c(-c2noc(C)c2C(=O)Nc2ccc(Cl)cc2)cnn1C | -1%[70.6 µM]
CCOC(=O)c1csc(NC(=O)C2CC(=O)N(c3n[nH]c4ccccc34)C2)n1 (configuration not stated) | -4%
Cc1ccc(C(=O)N2[C@@H]3CC[C@H]2CC(NC(=O)c2ccncc2)C3)cc1C (some centres not stated) | 0%
Cn1c(C(=O)NCCN2CCOCC2)nc2nc(-c3ccccc3)c(Cl)cc21 | -9%[70.6 µM]
CCN(CC)CC[C@H]1CN(C(=O)NC2CCCCC2)CC[C@H]1CC(=O)O | -3%[70.6 µM]
Cc1noc(C)c1CN(C)CC1(O)CNCCOC1 (configuration not stated) | -3%
CCc1noc(-c2cccn3c(CNC(=O)C(CC)c4ccccc4)nnc23)n1 (configuration not stated) | 1%
Cc1nc(N2CCC(C(=O)O)(n3cccn3)CC2)cc(-n2cccn2)n1 | -4%
COc1cccc(CN2C(=O)CCCCC2C(=O)NCCCN2CCc3ccccc3C2)c1 (configuration not stated) | -9%
Cc1cccn2c(CC(=O)N3CCC4(CC3)c3nc[nH]c3CCN4C)cnc12 | 5%
Cc1cnc(-c2ccccc2)n1CCNC(=O)CCC1CCCC1 | -7%
COc1cccc(-c2nc(-c3c(C)noc3C)cc3c2cc(C)n3CCN(C)C)c1 | 3%[70.6 µM]
CNC(=O)[C@H]1C[C@H](Oc2ccccc2)CN1C(=O)c1ccc(OC)c(OC)c1 | -12%

Reformatted as labelled records: part of the list above
CCc1noc(-c2cccn3c(CNC(=O)C(CC)c4ccccc4)nnc23)n1 (configuration not stated)
  hNpr1 antagonist = 1%

Cc1nc(N2CCC(C(=O)O)(n3cccn3)CC2)cc(-n2cccn2)n1
  hNpr1 antagonist = -4%

COc1cccc(CN2C(=O)CCCCC2C(=O)NCCCN2CCc3ccccc3C2)c1 (configuration not stated)
  hNpr1 antagonist = -9%

Later entries
SMILES | hNpr1 antagonist
O=C(O)C1CN(c2nccc(N3CCC(O)CC3)n2)CCN1 (configuration not stated) | -2%
Cc1ccc2c(C(=O)NCc3ccccc3C(F)(F)F)cc(NC(=O)C(C)C)cc2n1 | -19%
COc1cccc(CN2C(=O)OC3(CCN(Cc4c[nH]c5ccccc45)CC3)C2(C)c2cccnc2)c1 (configuration not stated) | -1%
Cn1cnc(C(=O)N2CCC3(CC2)CN(Cc2ccccc2)CC3CO)c1 (configuration not stated) | 0%
Cc1cccnc1CN(C(=O)c1cc(COc2ccccc2)[nH]n1)C(C)C | -3%
CS(=O)(=O)CCN1CCN(C(=O)c2cccc(-c3ncc[nH]3)c2)CC1 | 1%
CCCS(=O)(=O)N1CCCC(Cc2noc(-c3cccnc3)n2)C1 (configuration not stated) | -15%
O=S(=O)(C1CC1)N1CCC(n2cnnc2-c2ccccc2)CC1 | 0%
COc1ccccc1CN1CC2(C1)C(=O)N(CCCN1CCCC1=O)C(=O)[C@@H]1C[C@@H](O)CN12 | 2%
Cc1ccc(-c2noc([C@@H]3Cc4nc[nH]c4CN3C(=O)NC(C)C)n2)cc1 | -4%[70.6 µM]
O=C1NC2(CCN([S+](=O)([O-])c3cccc(C(F)(F)F)c3)CC2)Oc2ccccc21 | ?
CCOC(=O)c1ccc(NC(=O)Cn2c(N3CCc4ccccc4C3)nc(C)cc2=O)cc1 | -13%
N#Cc1ccc(C(=O)Nc2ccc([C@H]3OCC(=O)N(Cc4ccc(F)cc4)[C@@H]3CO)cc2)cc1 | ?
Cc1noc(C)c1S(=O)(=O)N[C@@H]1CN(Cc2ccccc2)C[C@H]1CN(C)C | 6%
O=C(NCc1ccccc1)c1ccccc1OC1CN(Cc2ccc(F)c(F)c2)C1 | -13%

Taken from above:
For hNpr1 antagonist, `CCOC(=O)c1ccc(NC(=O)Cn2c(N3CCc4ccccc4C3)nc(C)cc2=O)cc1` is listed with -13%
For hNpr1 antagonist, `COc1cccc(CN2C(=O)OC3(CCN(Cc4c[nH]c5ccccc45)CC3)C2(C)c2cccnc2)c1` (configuration not stated) is listed with -1%
For hNpr1 antagonist, `Cc1ccc(-c2noc([C@@H]3Cc4nc[nH]c4CN3C(=O)NC(C)C)n2)cc1` is listed with -4%[70.6 µM]
For hNpr1 antagonist, `CS(=O)(=O)CCN1CCN(C(=O)c2cccc(-c3ncc[nH]3)c2)CC1` is listed with 1%
